High-throughput results as filed in PubChem.
Sa growth inh – S. aureus growth inhibition at 42 and 30 °C, primary screen, LtaS inhibitor project, RN4220, two temperatures; relative growth, % (test concentration not listed); OD600, 20 h, 42 °C; stronger effect = lower value; actives 0.53% (n = 170,000);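 active = growth at 42 °C up to 50% and 20 or more points under that at 30 °C, or under 10% at both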;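 note: 300 nL library stock went into each well; scaled to the means of positive and negative controls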
HCMV NEC inh – inhibitors of HCMV UL50-UL53 interaction, biochemical, HTRF; normalized percent inhibition; inhibition, % (concentration not given with the values); actives 0.15% (n = 190,000); AID 1918969, 2023;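 active = both replicates at 50% or more, plus weaker picks with an unusually low signal ratio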;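 note: stock transfer was 100 nL into about 20 µL; 0% = negative control wells and 100% = wells with untagged competitor protein; inactives centre near -12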
GIV Gai3 FP – inhibitors of GIV peptide binding to Galpha-i3, primary screen, biochemical, fluorescence polarization, FITC-GIV GBA peptide, rat Galphai3. 90 min; stronger effect = lower value; scaled: aluminum fluoride 0%, vehicle 100%. actives 0.42% (n = 210,000). Guanine nucleotide-binding protein G(i) subunit alpha-3 (Rattus norvegicus), P08753. AID 1224905, 2016. percent of control (FP), % (test concentration not listed);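 active = replicate mean at 85% of control or lower, very high polarization wells dropped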;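 note: wells of about 15 µL received 100 nL stock; the first replicate is given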
Target sequence (P08753 whole entry, looked up): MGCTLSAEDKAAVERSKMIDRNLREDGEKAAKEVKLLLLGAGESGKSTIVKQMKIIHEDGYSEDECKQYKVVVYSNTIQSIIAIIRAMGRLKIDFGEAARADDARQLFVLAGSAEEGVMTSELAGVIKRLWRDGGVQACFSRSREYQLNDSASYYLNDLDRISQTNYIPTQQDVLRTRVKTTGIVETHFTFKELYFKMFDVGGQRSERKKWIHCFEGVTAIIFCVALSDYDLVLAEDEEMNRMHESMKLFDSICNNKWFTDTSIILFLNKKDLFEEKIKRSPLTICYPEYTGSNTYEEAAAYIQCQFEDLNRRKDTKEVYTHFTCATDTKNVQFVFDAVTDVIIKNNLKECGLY
Sa growth inh second temp – also measured in Sa growth inh; calls as there; relative growth, %; measured here: growth at 30 °C;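 optical density after 20 h as mean of two plates; 100% = untreated growth and lower means inhibition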
The depositor's hits bear a star; nt = not tested or not shown; & = joins results of further samples.

1) Cc1ccc(C)c(NC(=O)c2ccc3c(c2)NC(=O)CO3)c1
2) Cc1ccc2[nH]c(=O)nc(-c3ccccc3)c2c1
3) Cn1cccc1C(C(=O)NC1CCCCC1)N(C(=O)Cc1cccs1)c1ccccc1 (stereo unspecified)
4) FC(F)(F)c1ncncc1-c1nnnn1-c1ccccc1
5) Cc1nn(-c2ccccc2)c2sc(C(=O)N(C)C(C)C(O)c3ccccc3)cc12 (stereo unspecified)
6) CC(=O)Nc1ccc(C(=O)CSc2ncn(-c3ccccc3)n2)cc1
7) O=C(CC1(c2ccc(Cl)cc2)C(=O)c2ccccc2C1=O)N1CCCCC1
8) COc1cc(NC(=O)Cn2c(=O)n(Cc3ccco3)c(=O)c3sc4ccccc4c32)cc(OC)c1
compound no.	1	2	3	4	5	6	7	8
Sa growth inh	nt	130&105	89	97	140	95	91	101
Sa growth inh second temp	nt	84&91	85	94	89	77	92	86
HCMV NEC inh	-2	-51&-20	-16	-6	-18	-11	3	-16
GIV Gai3 FP	100	103	101	104	nt	105	nt	99

9) COC(=O)/C=C/C1=C(N)c2ccccc2C1(C#N)c1ccccc1 (stereo unspecified)
10) CCOC(=O)c1ccc2[nH]c3c(c2c1)CCCC3C(=O)OCC (stereo unspecified)
11) C#CCOC(=O)Nc1cc(C)n(-c2ccccc2)n1
12) O=C(CC1S/C(=N\N=C2CCCCCCC2)NC1=O)Nc1ccccc1 (stereo unspecified)
13) Cc1ccc(NC(=O)CCC2CC(C)(C)OC2=O)cc1 (stereo unspecified)
14) COc1ccc(NC(=O)CN2C(=O)C(=O)c3ccccc32)c(OC)c1
15) Cc1cccc(C)c1OCC(N)C(C)C (stereo unspecified)
16) CC1=C(C(=O)Nc2cc(Cl)ccc2C)C(c2cccs2)n2ncnc2N1 (stereo unspecified)
compound no.	9	10	11	12	13	14	15	16
Sa growth inh	nt	90	95	126	93	99	nt	125
Sa growth inh second temp	nt	87	89	91	77	91	nt	105
HCMV NEC inh	-18	-2	-24	12	-10	-42	-26	nt
GIV Gai3 FP	98	nt	102	101	99	106	96	106

17) CC(=O)N1CCc2c(sc3c2c(=O)n(-c2ccccc2)c(=O)n3CC(=O)c2ccc(Cl)cc2)C1
18) Oc1ccccc1-c1cc(-c2ccc3c(c2)OCO3)cc(-c2ccccc2)n1
19) Cc1noc(C)c1C(=O)N(C(C)C)C(C)C
20) S=C1Nc2cccc3cccc(c23)N1
21) O=C(Nc1cc(Cl)cc(Cl)c1)c1cc(S(=O)(=O)N2CCCc3ccccc32)ccc1F
22) OC(c1ccc(Br)cc1)C12CN3CN(CN(C3)C1)C2 (stereo unspecified)
23) COc1cc(Cl)c(C)cc1NC(=O)CSCc1nc(-c2ccc(OC)c(OC)c2)no1
24) CN1CCCN(c2ccc(NC(=O)C3CCCC3)c(C(=O)O)c2)CC1
compound no.	17	18	19	20	21	22	23	24
Sa growth inh	119	96	106	110	90	114	115	nt
Sa growth inh second temp	93	74	104	94	92	94	97	nt
HCMV NEC inh	-5	nt	-2	-33	nt	-9	nt	-38
GIV Gai3 FP	104	101	100	nt	100	95	108	97

25) CCc1cc(C(Nc2cc(C)ccn2)c2ccsc2)c(NC(=O)c2ccccc2)s1 (stereo unspecified)
26) CCCCNC(=O)Nn1c(=O)[nH]c2ccccc2c1=O
27) O=C1NCCc2c(OCC(=O)N3CCCC3)cccc21
28) CCCN(CCC)C(=O)c1ccc(NC(=O)C2=CNCCO2)cc1
29) O=C(NCc1cc(F)cc2c1OCOC2)c1ccc2nonc2c1
30) O=C(CN1CCOCC1)N1c2ccccc2Sc2ccc(Cl)cc21
31) CCN1CCC(N(Cc2cccc(OC)c2)C(=O)NC23CC4CC(CC(C4)C2)C3)CC1
32) Cc1cccc(NC(=O)CSc2nc(-c3ccccc3Cl)nc3c2Cc2c(CO)cnc(C)c2O3)c1C
compound no.	25	26	27	28	29	30	31	32
Sa growth inh	nt	98	95	88	102	102	101	93
Sa growth inh second temp	nt	93	95	83	86	86	85	104
HCMV NEC inh	3	-5	-3	-26	-83	-6	nt	nt
GIV Gai3 FP	104	nt	106	101	100	101	102	103

33) CN1C(c2ccccc2)CC(=O)C2(O)CCCCC12 (stereo unspecified)
34) CN(C)CCCN1C(=O)CSC1c1ccc(Cl)c(Cl)c1 (stereo unspecified)
35) CCCCNC(=O)Cc1c(C)nc2nc(C3CCCCC3)nn2c1C
36) COC(=O)CC1Nc2ccccc2SC1=O (stereo unspecified)
37) CSc1cccc(NC(=O)c2ccc3snnc3c2)c1
38) Nc1ncc(-c2ccccc2)n1CC1CCCO1 (stereo unspecified)
39) CC1CCC(NC(=O)c2ccc3c(c2)N(Cc2ccccc2F)C(=O)c2ccccc2S3(=O)=O)CC1 (stereo unspecified)
40) O=C(Nc1nnc(S(=O)(=O)N2CCCCCC2)s1)c1ccc(Br)cc1
compound no.	33	34	35	36	37	38	39	40
Sa growth inh	114	86	nt	98	118	104	98	107
Sa growth inh second temp	106	77	nt	90	88	62	93	84
HCMV NEC inh	0	-19	2	-12	nt	-3	-27	-7
GIV Gai3 FP	99	102	95	105	107	nt	102	101

41) Cc1nc(Nc2ccc(F)cc2F)c2c(C)noc2n1
42) O=C(CCCCn1c(=O)c2ccccc2n(CC(=O)Nc2ccc(F)cc2F)c1=O)NCCc1ccccc1
43) CC(C)Cn1cc(NC(=O)N2CCN(c3ccc(F)cc3)CC2)c2ccccc2c1=O
44) CCOc1ccc(CC2C(=O)NC(=O)N(Cc3ccccc3)C2=O)cc1 (stereo unspecified)
45) COc1ccc(/C=C2/SC(=S)N(CCC(=O)O)C2=O)cc1
46) N#Cc1ccc(NC(=O)Nc2cccc3ccccc23)cc1
47) COC(=O)CSc1nc(C)cc(Oc2ccccc2)n1
48) COC(=O)CCS(=O)(=O)c1ccc2ccccc2c1
compound no.	41	42	43	44	45	46	47	48
Sa growth inh	nt	109	109	107	90	89	93	113
Sa growth inh second temp	nt	92	81	93	84	80	80	90
HCMV NEC inh	-22	-5	nt	-10	-138	10	-9	-24
GIV Gai3 FP	100	101	99	nt	nt	nt	106	99

49) CC(=O)Nc1cccc(-c2nc3ccccc3o2)c1
50) CCOc1ccccc1NC(=O)Cn1c(=O)n(Cc2ccc(OC)cc2)c(=O)c2oc3ccccc3c21
51) Cc1nc(Nc2ccc(NC(=O)Nc3ccc(Cl)cc3)cc2)cc(N(C)C)n1
52) O=c1c2c3c(sc2nnn1Cc1ccc(F)cc1)CCCC3
53) NC/C=C\C(=O)O
54) O=C(COC(=O)c1n[nH]c2ccccc12)NC1CCCCC1
55) COc1ccccc1OCC(=O)Nc1cccc(N2CCn3c(nc4cc(Cl)ccc43)C2)c1
56) Cc1nn(-c2ccccc2)c(N2CCCC2)c1/C=N/NC(=O)Cn1ccc(C(F)(F)F)n1
compound no.	49	50	51	52	53	54	55	56
Sa growth inh	84	118	nt	90	nt	90	nt	81
Sa growth inh second temp	104	88	nt	84	nt	79	nt	92
HCMV NEC inh	8	nt	-36	nt	-98	-18	6	-15
GIV Gai3 FP	101	95	96	103	103	nt	102	nt

57) Cn1c(O)c(C2=c3ccccc3=NC2=O)[nH]c1=S
58) Cc1ccc(-n2nnnc2CNC(=O)c2ccc(F)cc2)cc1C
59) CCOc1cc(C(=O)O)ccc1OCCOc1ccccc1
60) Cc1cccc(-c2nc3nc(CN4CCCC4)cc(=O)n3[nH]2)c1
61) CC1CCCN(C2CCN(Cc3ccccc3Cl)CC2)C1 (stereo unspecified)
62) COc1ccc(S(=O)(=O)N2CCC(c3ccncc3)CC2)cc1Cl
63) O=C(CSc1nc2ccccc2[nH]1)Nc1ccccc1Br
64) CCOC(=O)COc1ccc2c(c1)C(=O)CC1(CCN(C(C)=O)CC1)O2
compound no.	57	58	59	60	61	62	63	64
Sa growth inh	100	108	100	nt	101	108	95	101
Sa growth inh second temp	94	98	93	nt	84	102	96	94
HCMV NEC inh	-19	nt	-20	-26	nt	nt	6	-32
GIV Gai3 FP	104	105	nt	102	98	103	nt	101

Sorted by molar mass (lowest first): some entries from above.
57) Cn1c(O)c(C2=c3ccccc3=NC2=O)[nH]c1=S
61) CC1CCCN(C2CCN(Cc3ccccc3Cl)CC2)C1 (stereo unspecified)
60) Cc1cccc(-c2nc3nc(CN4CCCC4)cc(=O)n3[nH]2)c1
58) Cc1ccc(-n2nnnc2CNC(=O)c2ccc(F)cc2)cc1C
64) CCOC(=O)COc1ccc2c(c1)C(=O)CC1(CCN(C(C)=O)CC1)O2
compound no.	57	61	60	58	64
Sa growth inh	100	101	nt	108	101
Sa growth inh second temp	94	84	nt	98	94
HCMV NEC inh	-19	nt	-26	nt	-32
GIV Gai3 FP	104	98	102	105	101

Additional compounds follow:
65) Cc1cccc(C(=O)Nc2ccc(N3CCCC3)c(NC(=O)Nc3ccccc3)c2)c1
66) Cc1oc2ncn(C)c(=O)c2c1C(=O)N(Cc1ccccc1)C(C)C
67) COc1ccc(-c2cc(-c3nc4c5sc6nc(C)cc(C)c6c5ncn4n3)[nH]n2)cc1OC
68) CCOc1ccc(N2CC(c3nc4ccccc4n3Cc3ccccc3F)CC2=O)cc1 (stereo unspecified)
69) S=c1[nH]nc(NCCCN2CCOCC2)s1
70) Cc1ccc(C)c(NC(=O)NCCCn2c(-c3ccc(F)cc3)nc3cccnc32)c1
71) Cc1cc2nc(SCCOC(=O)CN3C(=O)c4ccccc4C3=O)nc(C)c2cc1C
72) CC1CCCCN1C(=O)CCS(=O)(=O)Cc1ccccc1 (stereo unspecified)
compound no.	65	66	67	68	69	70	71	72
Sa growth inh	nt	99	nt	91	85	nt	87	98
Sa growth inh second temp	nt	92	nt	93	82	nt	88	85
HCMV NEC inh	-31	nt	-5	-2	-28	-18	-6	-36
GIV Gai3 FP	103	108	101	114	nt	105	105	104

73) CC1=NNC(=O)C1C(c1ccccc1)C1C(=O)NN=C1C (stereo unspecified)
74) O=C(O)CCc1nc2ccccc2c(=O)n1Cc1ccc2c(c1)OCO2
75) c1ccc(NCc2ccco2)cc1
76) COCC(C)n1c(C)cc(C(=O)COC(=O)c2c(OC)cccc2OC)c1C (stereo unspecified)
77) COc1ccc(C(=O)OCc2cc(=O)n3nc(-c4cccs4)sc3n2)cc1
78) O=C(Cn1ccccc1=O)c1ccc(Cl)cc1
79) O=C(c1ccccc1)c1ccccc1C(=O)N1CCCC1
80) O=C(CSc1nc2ccccc2o1)Nc1ccc(Oc2ccccc2)cc1
compound no.	73	74	75	76	77	78	79	80
Sa growth inh	97	109	95	97	86	95	112	83
Sa growth inh second temp	89	99	78	93	79	84	98	91
HCMV NEC inh	-21	-2	-23	-29	nt	-6	-10	nt
GIV Gai3 FP	100	nt	101	nt	101	100	104	103

81) N#C/C(=C\c1ccc(F)cc1)c1c[nH]c2ccccc12
82) O=C(NCC1CCCO1)N1CCc2c(sc3nc(-c4ccc(Cl)cc4)nn23)C1 (stereo unspecified)
83) CCS(=O)(=O)N1CCN(c2ccc(C)cc2)C(C)C1 (stereo unspecified)
84) Cc1nc(N2CCOCC2)c2c(C(=O)N(C)c3ccccc3)c(C)oc2n1
85) CCOc1ccc(CCNC(=O)c2cn(CC)c3ccc(S(=O)(=O)N4CCCCCC4)cc3c2=O)cc1OCC
86) COC(=O)C1(O)CC(=O)c2ccccc2O1 (stereo unspecified)
87) COc1ccccc1OCCn1c(C(C)Oc2ccccc2)nc2ccccc21 (stereo unspecified)
88) O=c1c(=O)n(-c2ccccc2)ccn1Cc1c(F)cccc1Cl
compound no.	81	82	83	84	85	86	87	88
Sa growth inh	42*	nt	103	75	98	92	77	115
Sa growth inh second temp	68*	nt	101	87	94	91	71	90
HCMV NEC inh	-7	5	-33	nt	-38	-24	4	-24
GIV Gai3 FP	107	104	98	102	105	103	110	95

89) CC1(C)OC(=O)C1C(=O)O (stereo unspecified)
90) CC(C)CCNC(=O)CN1C(=O)COc2ccc(S(=O)(=O)N3CCOCC3)cc21
91) CC1=C(NN(C)c2cccc(Cl)c2)C(=O)N(C2CCCCC2)C1
92) CN1C2CCC1CC(NC(=O)c1c(F)cccc1F)C2 (stereo unspecified)
93) CS(=O)(=O)c1nc2ccccc2n1Cc1ccccc1
94) c1ccc(-n2nnnc2NC2CCCCCC2)cc1
95) COc1cc(/C=C/C(=O)Nc2ccc(S(=O)(=O)N3CCCC3)cc2)cc(OC)c1OC
96) CCc1cccc(C)c1NC(=O)C(C)C
97) CCN(CC)Cc1cc(C(C)(C)C)oc1C(=O)O
compound no.	89	90	91	92	93	94	95	96	97
Sa growth inh	95	112	88	96	93	104	110	96	107
Sa growth inh second temp	83	92	94	85	95	74	79	90	84
HCMV NEC inh	-17	-5	-7	-6	-3	-11	-3	2	-13
GIV Gai3 FP	nt	107	nt	98	nt	99	100	108	nt

Compounds 96 to 97 from above:
96) CCc1cccc(C)c1NC(=O)C(C)C
97) CCN(CC)Cc1cc(C(C)(C)C)oc1C(=O)O
compound no.	96	97
Sa growth inh	96	107
Sa growth inh second temp	90	84
HCMV NEC inh	2	-13
GIV Gai3 FP	108	nt
